DUX4 txn inh = DUX4-mediated transcription inhibition. activity change, negative = inhibition, % (concentration not given with the values). 293T-iDUX4 ZSCAN4-Gaussia luciferase reporter, 24 h; stronger effect = lower value. hit rate 0.8% among 37,000. AID 1224904;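 active = -10% or lower and over 25 points stronger than a control reporter; inconclusive = -10% or lower with a smaller gap; inactive = above -10%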;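 note: 0% = median of neutral control wells and -100% = median of positive control wells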
DUX4 txn inh difference = also measured in DUX4 txn inh; calls as there; Gaussia minus Italica difference, %; measured here: selective DUX4 reporter inhibition;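 worked out from the two reporters; negative = selective loss of the DUX4 reporter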
DUX4 txn inh control = second read-out of DUX4 txn inh, no call of its own (marks repeat the call); activity change, negative = inhibition, %; measured here: Italica tet-on control reporter;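 0 = neutral control and -100 = positive control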
The depositor's hits bear a star. An excerpt. The share of hits here may be higher or lower than overall.

O=C(c1ccccn1)N1C[C@H]2[C@@H](c3ccccc31)[C@H](CO)N2C(=O)Nc1ccccc1 was read as DUX4 txn inh -1, DUX4 txn inh difference 3 and DUX4 txn inh control -4.0.
CN1[C@@H]2c3ccc(C4=CCCCC4)c(=O)n3C[C@H]1[C@H](CO)[C@H]2C(=O)NCc1cccc(F)c1 was read as DUX4 txn inh 3, DUX4 txn inh difference 1 and DUX4 txn inh control 1.8.
Screening COc1ccc(CN2C[C@@H](O)COC[C@H]3O[C@H](CC(=O)NCCN4CCCC4)CC[C@@H]32)cc1 returned DUX4 txn inh 5, DUX4 txn inh difference -1 and DUX4 txn inh control 6.1.
`C/C=C/c1ccc([C@@H]2[C@H](CO)N3C(=O)CN(C(=O)Nc4cccc(OC)c4)C[C@@H]23)cc1` gave DUX4 txn inh inconclusive.
For C[C@H]1CCCCO[C@@H](CN(C)C(=O)c2ccncc2)[C@@H](C)CN([C@@H](C)CO)C(=O)c2cc(NC(=O)CCC(F)(F)F)ccc2O1 the results were DUX4 txn inh 0, DUX4 txn inh difference 6 and DUX4 txn inh control -5.4.
Screening COc1ccc(C#Cc2ccc3c(c2)O[C@H](CN(C)C(=O)NC2CCCCC2)[C@H](C)CN([C@H](C)CO)S3(=O)=O)cc1 returned DUX4 txn inh 0, DUX4 txn inh difference -6 and DUX4 txn inh control 5.9.
`COc1ccc(S(=O)(=O)N(C)C[C@H]2Oc3ccc(NC(=O)CCN4CCOCC4)cc3CC(=O)N([C@H](C)CO)C[C@H]2C)cc1` gave DUX4 txn inh -1, DUX4 txn inh difference -8 and DUX4 txn inh control 7.3.
Screening CC(C)NC(=O)N1[C@H](CO)[C@H]2c3ccccc3N(C(=O)Nc3cccc(Cl)c3)C[C@H]21 returned DUX4 txn inh 1, DUX4 txn inh difference 0 and DUX4 txn inh control 1.8.
Screening O=C(Nc1ccc(F)cc1)N1C[C@@H]2[C@H](c3ccccc31)[C@H](CO)N2C(=O)Cc1ccncc1 returned DUX4 txn inh -5, DUX4 txn inh difference -1 and DUX4 txn inh control -3.4.
`CC[C@@H]1C/C=C\C[C@@H](c2ccc(OC)cc2OC)NC(=O)[C@H](C)CC(=O)N1` gave DUX4 txn inh -3, DUX4 txn inh difference -3 and DUX4 txn inh control 0.0.
Screening CN(C[C@@H]1[C@@H](c2ccccc2)[C@H](CO)N1CC1CC1)C(=O)c1ccc(F)cc1 returned DUX4 txn inh -3, DUX4 txn inh difference -5 and DUX4 txn inh control 1.9.
`CC(C)NC(=O)N1CCCCN2[C@H](CO)[C@H](c3ccc(C#Cc4ccccc4F)cc3)[C@H]2C1` gave DUX4 txn inh inconclusive.
`C[C@H]1CN([C@@H](C)CO)C(=O)c2cc(-c3cccc(C#N)c3)cnc2O[C@H]1CN(C)Cc1ccc(F)cc1` gave DUX4 txn inh 0, DUX4 txn inh difference 2 and DUX4 txn inh control -2.0.
For COc1ccccc1NC(=O)N(C)C[C@@H]1OCc2cnnn2CCCC(=O)N([C@@H](C)CO)C[C@@H]1C the results were DUX4 txn inh -7, DUX4 txn inh difference -13 and DUX4 txn inh control 6.0.
For C[C@H](CO)N1C[C@H](C)[C@@H](CN(C)C(=O)Nc2cccc(F)c2)OCc2cn(nn2)CCCC1=O the results were DUX4 txn inh -2, DUX4 txn inh difference -4 and DUX4 txn inh control 2.2.
For C/C=C/c1ccccc1[C@H]1[C@@H](CO)N(c2nc(CC)cs2)[C@H]1C#N the results were DUX4 txn inh inconclusive.
Screening CCCC#Cc1ccc([C@H]2[C@H](CO)N3C(=O)CN(C(=O)Cc4cccnc4)C[C@@H]23)cc1 returned DUX4 txn inh 9, DUX4 txn inh difference -9 and DUX4 txn inh control 18.
CN1[C@H](C(=O)NCC2CCCCC2)[C@@H](CO)[C@@H]2Cn3c(ccc(-c4cccnc4)c3=O)[C@@H]21 was read as DUX4 txn inh 0, DUX4 txn inh difference 6 and DUX4 txn inh control -5.6.
`CNC(=O)C[C@@H]1CC[C@H]2[C@@H](COC[C@@H](O)CN2S(=O)(=O)c2ccc(Oc3ccccc3)cc2)O1` gave DUX4 txn inh 0, DUX4 txn inh difference -1 and DUX4 txn inh control 0.6.
Screening CCCN1[C@@H]2c3ccc(-c4ccccc4)c(=O)n3C[C@@H]2[C@@H](CO)[C@@H]1C(=O)NCCc1cn(C)cn1 returned DUX4 txn inh -4, DUX4 txn inh difference -3 and DUX4 txn inh control -1.8.
C/C=C/c1ccc2c(c1)O[C@@H](CN(C)C(=O)c1ccccn1)[C@H](C)CN([C@H](C)CO)S2(=O)=O was read as DUX4 txn inh 1, DUX4 txn inh difference -3 and DUX4 txn inh control 3.6.
`COc1ccccc1NC(=O)N(C)C[C@@H]1OCc2ccccc2-c2c(n(C)c3ccccc23)C(=O)N([C@@H](C)CO)C[C@H]1C` gave DUX4 txn inh inconclusive.
`COc1ccccc1NC(=O)N[C@H]1C=C[C@H](CC(=O)NCc2ccc(Cl)c(Cl)c2)O[C@@H]1CO` gave DUX4 txn inh -5, DUX4 txn inh difference 11 and DUX4 txn inh control -16.
Screening COc1ccc(S(=O)(=O)N2CC3(CN(Cc4ccccc4OC)[C@@H](CO)c4[nH]c5cc(OC)ccc5c43)C2)cc1 returned DUX4 txn inh inconclusive.
For O=C(Cc1cccnc1)N1CC(=O)N2[C@H](CO)[C@H](c3ccc(C#CC4CCCCC4)cc3)[C@H]2C1 the results were DUX4 txn inh -3, DUX4 txn inh difference 7 and DUX4 txn inh control -11.
For CO[C@@H]1CN(C)C(=O)c2cc(NC(=O)NC(C)C)ccc2OC[C@H](C)N(C(=O)CN(C)C)C[C@@H]1C the results were DUX4 txn inh 0, DUX4 txn inh difference -1 and DUX4 txn inh control 1.0.
O=C(Nc1cccc(F)c1)N1CC(=O)N2[C@H](C1)[C@H](c1ccc(Br)cc1)[C@@H]2CO was read as DUX4 txn inh 3, DUX4 txn inh difference -4 and DUX4 txn inh control 7.4.
For O=C(C[C@H]1C[C@H]2c3cc(NC(=O)c4ccc5c(c4)OCO5)ccc3O[C@H]2[C@@H](CO)O1)NCc1ccc(Oc2ccccc2)cc1 the results were DUX4 txn inh inconclusive.
Screening CCCNC(=O)Nc1ccc2c(c1)C(=O)N(C)C[C@@H](OC)[C@@H](C)CN[C@@H](C)CO2 returned DUX4 txn inh 1, DUX4 txn inh difference 1 and DUX4 txn inh control -0.7.
For C/C=C/c1ccc(C2[C@H]3CNC[C@@H]2N3Cc2ccccc2C(F)(F)F)cc1 (stereo not given in full) the results were DUX4 txn inh 9, DUX4 txn inh difference -4 and DUX4 txn inh control 13.

Pulled one by one from above:
`COc1ccccc1NC(=O)N(C)C[C@@H]1OCc2ccccc2-c2c(n(C)c3ccccc23)C(=O)N([C@@H](C)CO)C[C@H]1C` gave DUX4 txn inh inconclusive.
`COc1ccccc1NC(=O)N[C@H]1C=C[C@H](CC(=O)NCc2ccc(Cl)c(Cl)c2)O[C@@H]1CO` gave DUX4 txn inh -5, DUX4 txn inh difference 11 and DUX4 txn inh control -16.

Other compounds follow:
COC(=O)c1ccc(CN2CC(=O)N3[C@@H](CO)[C@H](c4ccc(-c5ccccc5)cc4)[C@@H]3C2)cc1 was read as DUX4 txn inh -4, DUX4 txn inh difference -7 and DUX4 txn inh control 2.3.
For CC=Cc1ccc2n(c1=O)C[C@@H]1[C@@H](CO)[C@H](C(=O)N3CCCCC3)N(Cc3ccccc3OC)[C@H]21 (mixture of isomers) the results were DUX4 txn inh -6, DUX4 txn inh difference 0 and DUX4 txn inh control -6.4.
Screening CC(C)CC#Cc1cnc2c(c1)C(=O)N([C@@H](C)CO)C[C@H](C)[C@@H](CN(C)Cc1cccc(F)c1)O2 returned DUX4 txn inh 1, DUX4 txn inh difference 2 and DUX4 txn inh control -0.7.
C[C@H](CO)N1C[C@H](C)[C@H](CN(C)CC2CCOCC2)Oc2cc(C3=CCCC3)ccc2S1(=O)=O was read as DUX4 txn inh 3, DUX4 txn inh difference 4 and DUX4 txn inh control -0.3.
COCC#Cc1ccc([C@@H]2[C@@H](CO)N3CCCCN(C(=O)Nc4cc(F)ccc4F)C[C@H]23)cc1 was read as DUX4 txn inh 13, DUX4 txn inh difference 4 and DUX4 txn inh control 8.2.
Screening CCCC#Cc1cnc2c(c1)C(=O)N([C@@H](C)CO)C[C@@H](C)[C@H](CN(C)S(=O)(=O)c1cccc(OC)c1)O2 returned DUX4 txn inh 5, DUX4 txn inh difference 6 and DUX4 txn inh control -0.7.
`COc1cccc(-c2ccc3c(c2)[C@@H]2[C@@H](CCN2S(=O)(=O)c2ccccc2C)[C@H](CO)N3C)c1` gave DUX4 txn inh inconclusive.
C[C@H]1CCCCO[C@H](CN(C)C(=O)CCCN(C)C)[C@@H](C)CN([C@@H](C)CO)C(=O)c2cc(NS(=O)(=O)c3ccc(Cl)cc3)ccc2O1 was read as DUX4 txn inh 2, DUX4 txn inh difference 4 and DUX4 txn inh control -1.3.
C[C@H]1CCCCO[C@H](CN(C)Cc2ccc(Cl)c(Cl)c2)[C@@H](C)CN([C@@H](C)CO)C(=O)c2cc(NC(=O)Nc3ccc4c(c3)OCO4)ccc2O1 was read as DUX4 txn inh -3, DUX4 txn inh difference -3 and DUX4 txn inh control 0.0.
`CC(C)(C)[S@](=O)N1Cc2cc(C(=O)N3CCOCC3)nc(-c3cccc(-c4ccc(C#N)cc4)c3)c2[C@@H]1CCO` gave DUX4 txn inh 6, DUX4 txn inh difference -1 and DUX4 txn inh control 6.7.

Six neighbouring entries already listed:
C[C@H](CO)N1C[C@H](C)[C@H](CN(C)CC2CCOCC2)Oc2cc(C3=CCCC3)ccc2S1(=O)=O was read as DUX4 txn inh 3, DUX4 txn inh difference 4 and DUX4 txn inh control -0.3.
COCC#Cc1ccc([C@@H]2[C@@H](CO)N3CCCCN(C(=O)Nc4cc(F)ccc4F)C[C@H]23)cc1 was read as DUX4 txn inh 13, DUX4 txn inh difference 4 and DUX4 txn inh control 8.2.
Screening CCCC#Cc1cnc2c(c1)C(=O)N([C@@H](C)CO)C[C@@H](C)[C@H](CN(C)S(=O)(=O)c1cccc(OC)c1)O2 returned DUX4 txn inh 5, DUX4 txn inh difference 6 and DUX4 txn inh control -0.7.
`COc1cccc(-c2ccc3c(c2)[C@@H]2[C@@H](CCN2S(=O)(=O)c2ccccc2C)[C@H](CO)N3C)c1` gave DUX4 txn inh inconclusive.
C[C@H]1CCCCO[C@H](CN(C)C(=O)CCCN(C)C)[C@@H](C)CN([C@@H](C)CO)C(=O)c2cc(NS(=O)(=O)c3ccc(Cl)cc3)ccc2O1 was read as DUX4 txn inh 2, DUX4 txn inh difference 4 and DUX4 txn inh control -1.3.
C[C@H]1CCCCO[C@H](CN(C)Cc2ccc(Cl)c(Cl)c2)[C@@H](C)CN([C@@H](C)CO)C(=O)c2cc(NC(=O)Nc3ccc4c(c3)OCO4)ccc2O1 was read as DUX4 txn inh -3, DUX4 txn inh difference -3 and DUX4 txn inh control 0.0.

Later entries
CC(C)NC(=O)N1[C@H](C#N)[C@@H](c2ccc(C#CC3CC3)cc2)[C@@H]1CO was read as DUX4 txn inh 1, DUX4 txn inh difference -2 and DUX4 txn inh control 3.3.
For CN(C)C(=O)c1cccc(-c2ccc([C@@H]3[C@@H](C#N)N(C(=O)C4CC4)[C@@H]3CO)cc2)c1 the results were DUX4 txn inh -2, DUX4 txn inh difference -2 and DUX4 txn inh control -0.6.
Screening O=C(NCC(F)(F)F)[C@@H]1[C@@H](CO)[C@@H]2Cn3c(cccc3=O)[C@H]1N2C(=O)C1CC1 returned DUX4 txn inh 2, DUX4 txn inh difference -1 and DUX4 txn inh control 3.0.
`CCCC(=O)N1CC2(C1)CN(Cc1ccccc1F)[C@H](CO)c1c2c2ccc(OC)cc2n1C` gave DUX4 txn inh inconclusive.
N#C[C@H]1[C@H](c2ccc(C3=CCCCC3)cc2)[C@H](CO)N1C(=O)CN1CCOCC1 was read as DUX4 txn inh 2, DUX4 txn inh difference 2 and DUX4 txn inh control 0.3.
Screening O=C(NCc1ccc2c(c1)OCO2)[C@H]1[C@H](CO)[C@H]2Cn3c(cccc3=O)[C@@H]1N2Cc1ccccc1 returned DUX4 txn inh 4, DUX4 txn inh difference 1 and DUX4 txn inh control 3.3.
`O=C(CN1CCOCC1)N1CCCCN2[C@H](CO)[C@H](c3ccc(/C=C/c4ccccc4)cc3)[C@@H]2C1` gave DUX4 txn inh 0, DUX4 txn inh difference 10 and DUX4 txn inh control -9.5.
Screening CC(C)OC(=O)N(C)C[C@H]1OCc2cnnn2CCCC(=O)N([C@@H](C)CO)C[C@@H]1C returned DUX4 txn inh 7, DUX4 txn inh difference 2 and DUX4 txn inh control 5.3.
COc1ccc(-c2ccc3c(c2)[C@@H]2[C@@H](CCN2C(=O)C2CCOCC2)[C@@H](CO)N3C)cc1 was read as DUX4 txn inh inconclusive.
CN1CCN(C(=O)C[C@H]2C[C@H]3c4cc(NS(C)(=O)=O)ccc4O[C@H]3[C@H](CO)O2)CC1 was read as DUX4 txn inh 7, DUX4 txn inh difference 0 and DUX4 txn inh control 6.5.
`O=S(=O)(NCC[C@H]1CC[C@@H](NS(=O)(=O)c2cccc(Cl)c2)[C@H](CO)O1)c1cccc(F)c1` gave DUX4 txn inh -2, DUX4 txn inh difference -3 and DUX4 txn inh control 0.8.
`C[C@@H]1CCCCO[C@H](CN(C)CC2CCCCC2)[C@@H](C)CN([C@H](C)CO)C(=O)c2cc(NC(=O)CCCCCC(=O)Nc3ccccc3N)ccc2O1` gave DUX4 txn inh 0, DUX4 txn inh difference -2 and DUX4 txn inh control 2.4.
For Cc1cccc(CN(C)C[C@@H]2OCc3cn(nn3)CCCC(=O)N([C@@H](C)CO)C[C@@H]2C)c1 the results were DUX4 txn inh 2, DUX4 txn inh difference 2 and DUX4 txn inh control -0.1.
`COc1ccccc1CNC(=O)C[C@@H]1CC[C@H]2[C@@H](COC[C@@H](O)CN2Cc2ccccc2)O1` gave DUX4 txn inh 2, DUX4 txn inh difference 2 and DUX4 txn inh control -0.4.
Screening CCC(=O)N1CC(=O)N2[C@H](C1)[C@@H](c1ccc(C#Cc3cccc(F)c3)cc1)[C@@H]2CO returned DUX4 txn inh inconclusive.

Source: PubChem
